Screening results deposited in PubChem by Broad Institute.
Vaccinia stage = blocks a specific stage of Vaccinia orthopoxvirus infection, primary screen, cell-based, single point; Vaccinia-infected cells, mCherry/Venus stage reporter fluorescence; active compounds read low; some inactives read as strong as hits; activity change (mCherry), % (test concentration not listed); actives 0.01% (n = 89,000);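 active = mCherry past -33% and 40 or more points under the early reporter, replicates agreeing; inconclusive = past -33% without that gap or agreement; tested in A549 cells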;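 also: scaled between vehicle wells and reference inhibitor wells; 23 nL library stock went into each well; one replicate is shown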
Vaccinia stage Venus = second read-out of Vaccinia stage, no call of its own (marks repeat the call); activity change (Venus), %; measured here: Venus reporter, other viral stage;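 negative = less Venus signal; first of two replicates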
Active calls of the source: *; ? = inconclusive; . = no result given; & = joins results of further samples. Only part of the results is shown; rates above refer to the full screens.

Results follow in this order: Vaccinia stage	Vaccinia stage Venus
C[C@H](CO)N1C[C@H](C)[C@@H](CN(C)Cc2ccc(Oc3ccccc3)cc2)Oc2c(NC(=O)Nc3ccc(F)cc3)cccc2C1=O
    -17.9	-25.3
COc1ccc(S(=O)(=O)N[C@@H]2CCCN(Cc3ccc(OCCO)cc3)C2)cc1
    -16.4	-10.3
C[C@H](CO)N1C[C@H](C)[C@@H](CN(C)C)Oc2ncc(-c3ccc(C(=O)N(C)C)cc3)cc2C1=O
    24.9	10.0
C[C@@H]1CN([C@@H](C)CO)C(=O)c2cccc(NC(=O)Nc3ccc(F)cc3)c2O[C@H]1CN(C)Cc1ccncc1
    11.7	2.1
C[C@H]1CCCCO[C@@H](CN(C)C(=O)c2ccncc2)[C@@H](C)CN([C@@H](C)CO)C(=O)c2cc(NS(=O)(=O)c3ccc(F)cc3)ccc2O1
    30.4	21.5
CC(C)NC(=O)N(C)C[C@@H]1OCCCC[C@H](C)Oc2ccc(NS(=O)(=O)c3ccc(F)cc3)cc2C(=O)N([C@H](C)CO)C[C@@H]1C
    13.4	5.6
C[C@H](CO)N1C[C@H](C)[C@@H](CN(C)C(=O)c2ccccn2)Oc2ncc(C#Cc3ccccc3)cc2C1=O
    4.9	1.3
Cc1noc(C)c1S(=O)(=O)N(C)C[C@@H]1OCCCC[C@H](C)Oc2ccc(NC(=O)c3ccccc3)cc2C(=O)N([C@H](C)CO)C[C@@H]1C
    -30.5	-9.4
O=S(=O)(c1ccccc1)N1C[C@H]2[C@@H](c3ccccc31)[C@H](CO)N2Cc1ccc2c(c1)OCO2
    ?	.
CCC(=O)Nc1ccc2c(c1)OC[C@H](C)N(CCC(F)(F)F)C[C@@H](C)[C@H](OC)CN(C)C2=O
    -2.7	-2.3
O=C(C[C@@H]1C[C@@H]2c3cc(NC(=O)C4CCC4)ccc3O[C@@H]2[C@@H](CO)O1)NCc1cccc(F)c1
    -0.2	3.4
C[C@H](CO)N1C[C@H](C)[C@@H](CN(C)S(=O)(=O)c2ccc([N+](=O)[O-])cc2)OCc2ccccc2-c2ccccc2C1=O
    ?	.
Cc1ccc(S(=O)(=O)N(C)C[C@@H]2Oc3ccc(NC(=O)Cc4ccccc4)cc3CC(=O)N([C@H](C)CO)C[C@@H]2C)cc1
    -28.2	-24.1
CC(C)CC#Cc1ccc2c(c1)O[C@@H](CN(C)C(=O)NC(C)C)[C@H](C)CN([C@H](C)CO)S2(=O)=O
    -15.2	6.3
C[C@H](CO)N1C[C@H](C)[C@@H](CN(C)C(=O)Cc2ccccc2)OCCCC[C@H](C)Oc2ccc(NC(=O)c3ccncc3)cc2C1=O
    23.4	14.7
CO[C@H]1CN(C)C(=O)c2cc(NC(=O)NC3CCCCC3)ccc2OC[C@@H](C)N(CCc2ccccc2)C[C@@H]1C
    -28.8	-7.4
CCCC(=O)N1CCC2(CC1)CN[C@@H](CO)c1[nH]c3cc(OC)ccc3c12
    0.3	-4.3
COC(=O)C[C@@H]1C=C[C@H](NC(=O)c2ccccc2)[C@@H](CO)O1
    -0.8	1.2
C[C@H]1CN([C@@H](C)CO)C(=O)c2cccc(NC(=O)c3ccncc3)c2O[C@H]1CN(C)Cc1ccc2c(c1)OCO2
    -1.5	-2.0
C[C@H]1CN([C@@H](C)CO)C(=O)Cc2cc(NS(=O)(=O)c3cn(C)cn3)ccc2O[C@@H]1CN(C)C(=O)Nc1ccccc1
    14.0	5.7
C[C@@H]1CCCCO[C@@H](CN(C)C(=O)C2CCCCC2)[C@H](C)CN([C@@H](C)CO)C(=O)c2cc(NS(C)(=O)=O)ccc2O1
    -4.6	-1.7
CCCc1cn([C@H]2C[C@@H]3O[C@@H](CO)CC[C@@H]3O[C@@H]2CCc2ccc(-c3cccc(OC)c3)cc2)nn1
    6.3	0.1
C[C@H](CO)N1C[C@H](C)[C@H](CN(C)S(=O)(=O)c2cccs2)Oc2ncccc2C1=O
    15.8	8.7
COc1ccc(S(=O)(=O)N[C@@H]2C=C[C@@H](CC(=O)N3CCC(Cc4ccccc4)CC3)O[C@H]2CO)cc1
    ?	.
C[C@@H]1CN([C@@H](C)CO)C(=O)c2cc(-c3cccnc3)cnc2O[C@@H]1CN(C)C(=O)Cc1cccnc1
    19.3	9.3
COc1cc(CN2[C@@H]3CNC[C@H]2C3c2ccc(-c3ccccc3C)cc2)cc(OC)c1 (stereo partly specified)
    ?	-2.2
Cc1ccc(S(=O)(=O)Nc2ccc3c(c2)CC(=O)N([C@H](C)CO)C[C@@H](C)[C@@H](CN(C)CC2CCCCC2)O3)cc1
    -31.8	-22.8
Cc1ccc(S(=O)(=O)N[C@H]2CC[C@@H](CCNC(=O)c3ccc4c(c3)OCO4)O[C@@H]2CO)cc1
    -30.9	-13.5
C[C@@H]1CCCCO[C@H](CN(C)Cc2ccccc2)[C@@H](C)CN([C@H](C)CO)C(=O)c2cc(NC(=O)C3CCCCC3)ccc2O1
    -19.6	-11.5
CCCN1C[C@H](C)[C@@H](OC)CN(C)C(=O)c2ccc(NC(=O)Nc3c(C)noc3C)cc2OC[C@H]1C
    5.9	-5.0

Shown with each value named: entries from further up.
> C[C@@H]1CCCCO[C@@H](CN(C)C(=O)C2CCCCC2)[C@H](C)CN([C@@H](C)CO)C(=O)c2cc(NS(C)(=O)=O)ccc2O1
  Vaccinia stage = -4.6 | Vaccinia stage Venus = -1.7

> C[C@@H]1CN([C@@H](C)CO)C(=O)c2cccc(NC(=O)Nc3ccc(F)cc3)c2O[C@H]1CN(C)Cc1ccncc1
  Vaccinia stage = 11.7 | Vaccinia stage Venus = 2.1

Remaining list, next part
Results follow in this order: Vaccinia stage	Vaccinia stage Venus
C[C@H]1CCCCO[C@H](CN(C)S(=O)(=O)c2cccs2)[C@@H](C)CN([C@@H](C)CO)C(=O)c2cc(NS(=O)(=O)c3cccs3)ccc2O1
    ?	.
C[C@@H]1CN([C@@H](C)CO)C(=O)c2cccc(NC(=O)c3ccncc3)c2O[C@@H]1CN(C)Cc1ccc(Oc2ccccc2)cc1
    -8.2	-3.1
COc1ccc(NC(=O)N[C@H]2CC[C@@H](CCn3cc(-c4ccc(OC)cc4)nn3)O[C@@H]2CO)cc1
    -1.2	1.5
C[C@H]1CN([C@@H](C)CO)C(=O)c2cccc(NC(=O)C3CCCCC3)c2O[C@@H]1CN(C)Cc1ccc(C(=O)Nc2ccccc2N)cc1
    -13.6	-0.7
C[C@@H]1CN([C@H](C)CO)C(=O)c2cc(C#CC3CCCCC3)cnc2O[C@@H]1CN(C)C(=O)C1CCCCC1
    ?	.
CCCN1C[C@@H](C)[C@@H](OC)CN(C)C(=O)c2cc(NC(=O)Nc3c(C)noc3C)ccc2OC[C@H]1C
    4.7	3.6
O=C1N[C@H](Cc2ccccc2)COCc2cn(nn2)CC[C@@H]1Cc1ccccc1
    18.1	15.6
CNC[C@H]1Oc2ccc(NC(=O)CCC(F)(F)F)cc2C(=O)N([C@@H](C)CO)C[C@H]1C
    1.4	3.9
COc1cccc(S(=O)(=O)N(C)C[C@H]2Oc3ncc(C#CC(C)C)cc3C(=O)N([C@H](C)CO)C[C@H]2C)c1
    -2.7	-15.9
CCCNC(=O)N1C[C@@H](C)[C@@H](OC)CN(C)C(=O)c2ccc(NS(C)(=O)=O)cc2OC[C@H]1C
    0.8	3.9
COC(=O)C[C@@H]1CC[C@@H]2[C@@H](COc3ccc(NC(=O)Nc4ccc(C)cc4)cc3C(=O)N2C)O1
    -0.9	0.8
CN1C(=O)c2cc(NC(=O)Nc3ccccc3F)ccc2OC[C@@H]2O[C@@H](CC(=O)NCc3ccc(-c4ccccc4)cc3)CC[C@@H]21
    -4.6	-2.5
COc1ccc(-c2ccc([C@@H]3[C@H]4CN(C(=O)C5CC5)CC(=O)N4[C@H]3CO)cc2)cc1
    -8.7	-8.5
CO[C@@H]1CC[C@H]2CCOc3ccc(C#N)cc3C(=O)N(C)CCCC(=O)N(C)C[C@@H]1O2
    15.7	-2.6
C/C=C/c1ccc2c(c1)O[C@@H](CN(C)CC1CCOCC1)[C@H](C)CN([C@@H](C)CO)S2(=O)=O
    -14.9	-8.0
CN(C)C(=O)C[C@@H]1CC[C@@H]2[C@H](COC[C@@H](O)CN2Cc2nccs2)O1
    8.6	10.5
CCCNC(=O)Nc1ccc2c(c1)C(=O)N(C)[C@H]1CC[C@H](CC(=O)NCC3CCCCC3)O[C@H]1CO2
    11.0	15.3
Cc1cccc(S(=O)(=O)N(C)C[C@H]2OCc3ccccc3-c3c(n(C)c4ccccc34)C(=O)N([C@@H](C)CO)C[C@@H]2C)c1
    17.0	13.0
Cc1noc(C)c1NC(=O)N(C)C[C@H]1Oc2c(NS(=O)(=O)c3ccccc3)cccc2C(=O)N([C@@H](C)CO)C[C@@H]1C
    18.8	19.3
[N-]=[N+]=NCc1ccccc1C[C@@]1(C(=O)NCC(O)CO)N=C(c2ccc(OCCCO)cc2)O[C@@H]1c1ccccc1 (stereo partly specified)
    ?	.
COc1ccc(-c2ccc([C@H]3[C@@H](CO)N(C(=O)C4CCOCC4)[C@H]3C#N)cc2)cc1
    20.0	11.2
CCCC#Cc1ccc2c(c1)O[C@@H](CN(C)C(=O)CC)[C@H](C)CN([C@@H](C)CO)S2(=O)=O
    -2.9	-2.6
Cc1noc(C)c1NC(=O)Nc1ccc2c(c1)C(=O)N([C@@H](C)CO)C[C@@H](C)[C@H](CN(C)C(=O)Nc1ccc(C(F)(F)F)cc1)OCCCC[C@H](C)O2
    3.8	6.7
C[C@@H]1CN([C@@H](C)CO)C(=O)c2cc(C3=CCCCC3)cnc2O[C@H]1CN(C)C(=O)CN1CCOCC1
    18.2	2.5
CC(C)CC#Cc1ccc2c(c1)O[C@@H](CN(C)C(=O)Cc1ccncc1)[C@@H](C)CN([C@@H](C)CO)S2(=O)=O
    ?	.
COc1ccc(S(=O)(=O)Nc2ccc3c(c2)C(=O)N([C@@H](C)CO)C[C@H](C)[C@@H](CN(C)Cc2ccncc2)OCCCC[C@@H](C)O3)cc1
    14.0	-9.9
O=C(NCC1CC1)[C@H]1[C@H](CO)[C@H]2Cn3c(ccc(-c4ccccc4)c3=O)[C@@H]1N2C(=O)C1CC1
    8.1	7.9
CC(C)NC(=O)Nc1ccc2c(c1)C(=O)N([C@@H](C)CO)C[C@@H](C)[C@H](CN(C)Cc1ccccc1)OCCCC[C@H](C)O2
    22.2	-1.4
CCCN(C)C[C@@H]1Oc2ncc(Br)cc2C(=O)N([C@H](C)CO)C[C@H]1C
    3.4	4.2
CCCNC(=O)N1CC2(CCN(C(=O)C3CCC3)CC2)c2c([nH]c3cc(OC)ccc23)[C@H]1CO
    9.9	6.8
C[C@H](CO)N1C[C@H](C)[C@H](CN(C)Cc2ccccc2)Oc2ccc(NS(=O)(=O)c3cn(C)cn3)cc2C1=O
    16.3	12.1
C[C@@H]1CN([C@H](C)CO)C(=O)Cc2cc(NS(=O)(=O)c3ccc(F)cc3)ccc2O[C@H]1CN(C)Cc1ccc(Oc2ccccc2)cc1
    ?	.
C[C@@H]1CN([C@H](C)CO)C(=O)c2c(c3ccccc3n2C)-c2ccccc2CO[C@@H]1CN(C)S(=O)(=O)c1ccc([N+](=O)[O-])cc1
    -31.1	-24.3
COc1ccc(S(=O)(=O)N(C)C[C@H]2OCCCC[C@@H](C)Oc3ccc(NC(=O)CCCN(C)C)cc3C(=O)N([C@@H](C)CO)C[C@H]2C)cc1
    22.1	3.9
Cn1cnc(CCNC(=O)C[C@@H]2CC[C@@H]3[C@H](COC[C@@H](O)CN3C(=O)C3CCCC3)O2)c1
    6.5	5.0
C[C@@H]1CN([C@@H](C)CO)C(=O)Cc2cc(NC(=O)Nc3cccc4ccccc34)ccc2O[C@@H]1CN(C)S(=O)(=O)c1ccc(Cl)cc1
    -0.4	5.9
COCCOC(=O)N1C(=O)[C@@]2(c3ccccc31)[C@H](C(=O)Nc1nc3ccccc3s1)[C@H]1C(=O)O[C@H](c3ccccc3)[C@H](c3ccccc3)N1[C@@H]2c1ccccc1OCCO
    19.2	4.4
CCCN1C[C@@H](C)[C@@H](OC)CN(C)C(=O)c2ccc(NC(=O)CC(F)(F)F)cc2OC[C@@H]1C
    2.5	15.9
N#C[C@@H]1[C@@H](c2ccc(C#CC3(O)CCCC3)cc2)[C@@H](CO)N1C(=O)C1CC1
    23.1	10.7
O=C([C@H]1[C@H](CO)[C@H]2Cn3c(ccc(-c4ccncc4)c3=O)[C@H]2N1Cc1cocn1)N1CCCCC1
    -1.0	1.7
C[C@H](CO)N1C[C@H](C)[C@@H](CN(C)Cc2ccc(Cl)c(Cl)c2)Oc2ccc(NS(=O)(=O)c3ccc(F)cc3)cc2C1=O
    -12.0	-14.5
CC(=O)N1[C@H](CO)[C@H](c2ccc(C3=CCCC3)cc2)C12CN(C(=O)NC(C)C)C2
    9.1	17.1
CO[C@@H]1CN(C)C(=O)c2cc(NC(=O)C3CCOCC3)ccc2OC[C@@H](C)N(C(C)=O)C[C@H]1C
    -6.3	5.0
C[C@@H]1CN([C@@H](C)CO)C(=O)c2cccc(NS(=O)(=O)c3cn(C)cn3)c2O[C@@H]1CN(C)C(=O)Nc1ccc2c(c1)OCO2
    13.2	15.8
O=C(C1=C[C@@H](C2CCCCC2)C[C@@H](OCCCCO)O1)N1CCN(Cc2ccccc2)CC1
    -0.5	-0.5
CC(C)[C@@H](C)NC(=O)N(C)C[C@@H]1OCc2ccccc2-c2ccccc2C(=O)N([C@@H](C)CO)C[C@H]1C
    26.2	9.1
C[C@@H]1CN([C@H](C)CO)C(=O)CCCn2cc(nn2)CO[C@H]1CN(C)C(=O)Nc1ccc(F)cc1
    10.5&-0.1	11.6&1.1
